High-throughput results (PubChem)
fixLJ activator: increases Burkholderia fixLJ two-component signaling. B. multivorans fixK-promoter GFP reporter, 18 h; active compounds read high. z-score (concentration not given with the values). hit rate 0.3% among 29,000;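 active means replicate mean overnight rise in green fluorescent reporter signal, 3 or more SD over negative controls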;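 further: score is relative to vehicle wells of the plate; 300 nL library stock went into each well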
* marks the source's active call; other numbers are inactive results. The list is partial. The share of hits here may be higher or lower than overall.

canonical_smiles	fixLJ activator
O=c1c2sccc2n(Cc2cc(=O)n3ccccc3n2)c(=O)n1-c1cc(F)ccc1F	-1.6
COc1ccc(Nc2cc(C(=O)NCCc3ccccc3)c3ccccc3n2)cc1OC	-0.5
COc1cc(/C=C(\C#N)C(=O)NCC2CCCO2)ccc1O (stereo unspecified)	-0.13
CCCSc1ccccc1NC(=O)N1CCS(=O)(=O)CC1	-0.06
COc1ccc(NC(=O)CN2CCCN(Cc3ccc(Cl)cc3)S2(=O)=O)cc1Cl	-0.19
CC1CCc2c(sc(NC(=O)Cc3ccccc3)c2C(=O)Nc2ccc(Cl)cc2)C1 (stereo unspecified)	-0.98
COc1ccc(N2CCN(C(=O)Cn3cnc4sc(C)c(S(=O)(=O)N5CCC(C)CC5)c4c3=O)CC2)cc1	1.2
CCOc1ccccc1N(CC(=O)NCCSc1ccccc1)S(=O)(=O)c1ccccc1	-0.7
COC(=O)c1sc(-c2ccccc2)cc1NC(=O)Nc1ccccc1Cl	-0.16
Cc1ccc(-c2cn3cccc(C)c3n2)cc1NS(=O)(=O)c1ccccc1	1.1
Cc1cc(N2CCN(C)CC2)nc2ccc(NC(=O)c3ccc(C(C)(C)C)cc3)cc12	-0.99
CN1C(=O)C(CC(=O)NCCc2ccccn2)(Cc2ccccc2)c2ccccc21 (stereo unspecified)	-1.5
O=C(Nc1ccc2oc(-c3cccnc3)nc2c1)c1ccc(-c2ccc(OC(F)(F)F)cc2)o1	-0.11
Cc1ccc(Cl)cc1NC(=O)/C(C#N)=C\c1cn(Cc2ccc(F)cc2)c2ccccc12	-0.44
Cc1nc(CN2CCC3(CC2)Nc2ccccc2NC3=O)no1	-1.2
COc1ccc(Br)cc1Cn1nnc(C(=O)Nc2cccc(SC)c2)c1N	0.78
O=C(c1ccc(NC2COCC2Cc2ccnc3ccccc23)nc1)N1CCCC1 (stereo unspecified)	-1.2
COc1ccc(C(=O)c2c(N)c(C(=O)Nc3ccccc3Cl)c3ccccn23)cc1	-0.22
CCCOc1ccc(C(=O)Nc2ccc(Cl)c(-c3nc4ncccc4o3)c2)cc1	0.7
Cc1nn(C)c(C(=O)N2CCC(n3cnnc3)CC2)c1Cl	-1
CC1(C)CC(=O)c2cc(-c3nc(-c4ccc(Br)cc4)cs3)c(=O)n(-c3ccccc3)c2C1	0.71
CCOc1ccc(-n2c(SCC(=O)Nc3ccc(CC)cc3)nc3c(oc4ccccc43)c2=O)cc1	0.26
Cc1ccc(CCNC(=O)Cn2ncc3c(=O)oc4ccccc4c32)cc1	-0.24
COCCCNC(=O)c1ccc2c(c1)N(Cc1ccccc1F)C(=O)c1ccccc1S2=O (stereo unspecified)	-1.4
Cc1cc(=O)c2cc(-c3cccc(C(=O)NC4(C(N)=O)CCCC4)c3)ccc2[nH]1	-0.02
COc1ccc(NC(=O)C2CCCN(S(=O)(=O)c3ccc4c(c3)oc(=O)n4C)C2)c(OC)c1 (stereo unspecified)	-0.47
CCc1cccc(C)c1NC(=O)C1CCN(c2nn3c(=O)cc(C)nc3s2)CC1	0.66
Cc1ccc2nc(-c3ccc(O)cc3)c(Nc3ccc4c(c3)OCCO4)n2c1	1.1
Cc1ccccc1-c1noc(CNCc2ccccc2-n2cccn2)n1	-0.58
Cc1ccc(NC(=O)c2oc3ccccc3c2NC(=O)C23CC4CC(CC(C4)C2)C3)cc1	-0.77

The results go on:
canonical_smiles	fixLJ activator
CCC(CNc1nc(C(C)C)nc2c1cnn2C)N1CCCCC1 (stereo unspecified)	0.34
COc1ccc2cc(CN3CCNC(=O)C3)c(-c3cccs3)nc2c1	-3.2
Cc1ccc(NC(=O)c2ccccc2C)c(NC(=O)CCc2cnccn2)c1	-1.6
CC(C)C(=O)Nc1cccc(C(=O)Nc2nnc(CC(C)(C)C)s2)c1	-3.6
CCc1nnc2c3ccccc3nc(Nc3ccc(F)c(Cl)c3)n12	-0.64
Cc1cccc(OCCCn2c(CCNC(=O)C(C)(C)C)nc3ccccc32)c1	-2.3
COc1cccc(NS(=O)(=O)c2ccc3[nH]cc(C(=O)N4CCCC4)c(=O)c3c2)c1	1
Cc1cccc(C)c1Nc1c(-c2ccccc2Cl)nc2cnccn12	0.38
CCCSc1ccccc1NC(=O)NC(C)c1nnc(N)s1 (stereo unspecified)	-1.2
Cc1ccc(NC(=O)NCCS(=O)(=O)N(C)C)cc1Cl	-1.4
O=C(Nc1ccc(Cl)c(Cl)c1)N(Cc1c[nH]c2ccccc12)C1CCCCC1	-0.13
CCC(=O)N1CCc2cc(S(=O)(=O)N3CCN(c4ccccc4F)CC3)ccc21	-0.59
CCOc1ccc(N2CC(c3nc4ccccc4n3CCCCOc3ccc(OC)cc3)CC2=O)cc1 (stereo unspecified)	-2.3
O=C1CN(C(=O)Cc2ccc(F)cc2)C(c2ccccc2)c2cc(Cl)ccc2N1 (stereo unspecified)	2.1
O=C(NCC12CC3CC(CC(C3)C1)C2)c1cc2nc(-c3ccccc3)cc(C(F)(F)F)n2n1	-0.77
CCc1ccc(S(=O)(=O)c2c(C(=O)c3ccc(C)c(C)c3)cnc3ccccc23)cc1	-2.2
Cc1ccccc1N1CCN(S(=O)(=O)c2ccccc2)CC1	-1.5
CCN(CC)C(=O)c1c(NC(=O)c2cccc(C)c2)sc2c1CCC(C)C2 (stereo unspecified)	-0.84
O=C(NC1CCN(C(=O)c2ccccc2)CC1O)c1nnc2n1CCCCC2 (stereo unspecified)	-0.75
Cc1ccc(CCC(=O)N2CCC3(CCC(=O)N(CCCO)C3)CC2)cc1	-0.29
CCOc1ccccc1NC(=O)N1CC2CCC(C1)N(CCOC)C2=O (stereo unspecified)	0.05
Cc1cccc(NC(=O)CSc2nc3ccccc3nc2N2CCCCC2)c1C	-1.1
CCCn1nccc1C(=O)N1CCc2c(nc(-c3cccnc3)[nH]c2=O)C1	-1.7
COCCn1c(=N)c(C(=O)NCc2ccco2)cc2c(=O)n3cc(C)ccc3nc21	-1.8
Nc1ccc(S(N)(=O)=O)cc1	-0.74
CN(C)c1nc2c(c(N(C)C)n1)CCN(C(=O)c1ccc(Cl)cc1O)C2	-0.81
COc1cccc(-c2cn[nH]c2C2CCN(C(=O)C(C)O)CC2)c1 (stereo unspecified)	0.99
CCN1CC2(CCCN(C(=O)Cn3ccnn3)C2)CCC1=O (stereo unspecified)	-0.45
COc1cccc(/C=C/c2nc(C#N)c(N(C)Cc3ccccc3)o2)c1	2.2
Cc1ccc(/C=C/C(=O)Nc2ccc3nc(N4CCC(C)CC4)cc(C)c3c2)cc1	2

Random excerpt: six records from the list.
canonical_smiles	fixLJ activator
CCCn1nccc1C(=O)N1CCc2c(nc(-c3cccnc3)[nH]c2=O)C1	-1.7
CCc1ccc(S(=O)(=O)c2c(C(=O)c3ccc(C)c(C)c3)cnc3ccccc23)cc1	-2.2
CCOc1ccccc1NC(=O)N1CC2CCC(C1)N(CCOC)C2=O (stereo unspecified)	0.05
Nc1ccc(S(N)(=O)=O)cc1	-0.74
COCCn1c(=N)c(C(=O)NCc2ccco2)cc2c(=O)n3cc(C)ccc3nc21	-1.8
CCC(CNc1nc(C(C)C)nc2c1cnn2C)N1CCCCC1 (stereo unspecified)	0.34

The listing continues:
canonical_smiles	fixLJ activator
Cc1ccccc1NC(=O)CC(NCc1cccnc1)C(=O)O (stereo unspecified)	-1.5
Cc1ccc(CNC(=O)c2cc3c(s2)-c2ccc(Cl)cc2SC3)cc1	-2.8
O=C(NCCn1cc(SCc2ccc(Cl)cc2)c2ccccc21)c1cccs1	2
COc1ccc(CN2CCC(c3nnc(CN(C)C)n3C)CC2)cc1C(=O)O	-1.2
COc1ccccc1CCNC(=O)Cc1c(C)c2c(cc(C)c3c(C)coc32)oc1=O	-0.91
Cc1ccc(NC(=O)C2CCC(CNS(=O)(=O)c3cccc4nsnc34)CC2)c(C)c1 (stereo unspecified)	-0.03
CC(C)(C)c1ccc(-c2nc(S(=O)(=O)c3ccccc3)c(N3CCOCC3)o2)cc1	-1.1
C=CCn1cc(-c2cc(-c3cccc(O)c3)nc(N)c2C#N)cn1	0.51
COc1cc(NC(=O)CSc2nc(-c3ccco3)cc(C(F)(F)F)n2)cc(OC)c1OC	-0.89
COc1ccccc1C(=O)N1CCC(c2c[nH]c3ccccc23)(c2c[nH]c3ccccc23)CC1	1.7
Nc1c(Br)cc(Br)cc1CNC1CCC(O)CC1 (stereo unspecified)	-1.9
COc1cccnc1-c1ccc(C(=O)NCc2nnc3n2CCC3)cc1	-1.7
CO[C@@]12CCC(Oc3ccccn3)CC1N(C(=O)c1cc(C)on1)CC2 (stereo partly specified)	0.15
O=C(Nc1cccc(F)c1)[C@@H](c1ccccc1)N1Cc2ccccc2C1=O	-1.8
CCn1c(C(=O)NCc2ccc(F)cc2)cc2oc3ccccc3c21	-0.09
Cc1cccc(OCCCn2c(CCNC(=O)C3CCCCC3)nc3ccccc32)c1	-2.6
O=C(c1ccc2c(c1)N(Cc1ccc(F)cc1)C(=O)c1ccccc1S2=O)N1CCOCC1 (stereo unspecified)	-0.14
COc1ccc(OC)c(NC(=O)C(CCSC)NS(=O)(=O)c2cccs2)c1 (stereo unspecified)	-0.29
COc1ccccc1NC(=O)C1=C(C)Nc2nnnn2C1c1ccc(C(F)(F)F)cc1 (stereo unspecified)	-1.7
O=C(O)c1cc(-c2ccccc2)nn1Cc1ccccc1	-2.3
Cc1oc2ccc(O)c(CN(C)Cc3ccccc3)c2c1C(=O)Nc1cccc(C(F)(F)F)c1	1.1
Cc1ccc2c(=O)cc(C(=O)Nc3sc4c(c3C(=O)NCC3CCCO3)CCCC4)oc2c1C (stereo unspecified)	-1.7
COC(=O)C1CC(O)CCN1C(=O)C(C)(C)Nc1ccccc1 (stereo unspecified)	-3.1
CC(C)[N+](C)(CCOC(=O)C1c2ccccc2Oc2ccccc21)C(C)C	-0.98
COc1ccc(C2CC(=O)Nc3c2c(=O)nc2c(C)cccn32)cc1 (stereo unspecified)	-3.1
COC(=O)CC1Oc2ccccc2-n2cc(-c3ccccc3)nc21 (stereo unspecified)	0.34
CCc1ccccc1Nc1nc2ccccc2n2cnnc12	0.39
CCS(=O)(=O)CCNC(=O)N1CCCCC1c1ccc(F)cc1 (stereo unspecified)	-2.6
Cc1n[nH]c(C)c1S(=O)(=O)N1CCCC(C(=O)Nc2ccc(Cl)cc2)C1 (stereo unspecified)	0.6
CCC1CCCCN1S(=O)(=O)c1ccc(NC(=O)c2cc(=O)c3ccccc3o2)cc1 (stereo unspecified)	-1.6

The list continues:
canonical_smiles	fixLJ activator
Cc1nc2cc(OCc3nc(C(=O)N(C)CC4CCCO4)co3)ccc2s1 (stereo unspecified)	-2.6
CCCCCN1C(C(=O)c2ccccc2)=C(OC(=O)CC)c2ccccc2S1(=O)=O	-4.1
Fc1ccccc1C(NCCc1ccc(Cl)cc1)c1nnc(-c2ccccc2)o1 (stereo unspecified)	0.29
CC(=O)N1CCc2c(sc3c2c(=O)n(-c2ccccc2)c(=O)n3CC(=O)c2ccc(F)cc2)C1	0.19
Cc1ccccc1Cn1cc(NC(=O)c2cc(-c3ccc(Cl)cc3)on2)cn1	-1.3
Cc1ccc2c(=O)cc(C(=O)Nc3ccc(S(=O)(=O)N(C)Cc4ccccc4)cc3)oc2c1	-2.6
CC(=O)Nc1cccc(S(=O)(=O)NCC2CN(C)CCN2C)c1 (stereo unspecified)	0.52
Cc1cccc(NC(=O)Nc2ccc(F)cc2)n1	0.22
CC(C)OC(=O)/C(C#N)=C/c1ccc(-c2ccc(Cl)c(Cl)c2)o1	0.08
CCOC(=O)c1ccc(NC(=O)C(=O)NCc2ccco2)cc1	-0.76
COc1ccc2[nH]c(CNC(=O)C(c3cccnc3)N3CCOCC3)cc2c1 (stereo unspecified)	1.8
COc1ccc(S(=O)(=O)N(CCc2ccccc2)CC(=O)Nc2cccc(OC)c2)cc1	2.2
O=S(=O)(c1ccc(F)cc1)N(CC(O)Cn1c2ccccc2c2ccccc21)c1ccccc1 (stereo unspecified)	1.1
Cc1ccc(Nc2cc(C)c(C#N)c3nc4ccccc4n23)c(C)c1	-0.89
CCn1nc(C)cc1C(=O)NC1COCC1Cc1ccnc2ccccc12 (stereo unspecified)	-1.8
Cc1ccc(OCCCn2c(CCNC(=O)C3CCCCC3)nc3ccccc32)c(C)c1	-2
Cc1ccc(C)c(Nc2nnc(-n3nc(C)cc3C)c3ccccc23)c1	-0.89
Cc1ccc(NC(=O)CSc2cc(=O)n(C)c3ccc(Cl)cc23)c(Br)c1	-1.1
CCc1ccc2occ(CC(=O)Nc3sc4c(c3C(=O)OC)CCC4)c2c1	-1.1
COc1ccccc1S(=O)(=O)Cc1ccc(C(=O)NCc2ccc(Cl)cc2)o1	-2
COc1ccc(-c2c(C)nn3c(N4CCC(C(=O)NCCC(C)C)CC4)cc(C)nc23)cc1OC	-0.73
Cc1ccc(CNC(=O)C2CCCN(Cc3nc(-c4cccc(C)c4)oc3C)C2)cc1 (stereo unspecified)	0.4
Cc1ccccc1NC(=O)CSc1nccn1C	-0.75
CCOc1ccc(C2NC(=O)c3c(COC)cc(C)nc3N2Cc2ccccc2)cc1OC (stereo unspecified)	1.6
CCOc1ccc(NC(=O)CC2C(=O)N(c3ccc(F)cc3)C(=O)N2Cc2ccc(OC)c(OC)c2)cc1 (stereo unspecified)	-0.08
Cc1cc2cc(CCNS(=O)(=O)c3ccc(Br)cc3)c(=O)[nH]c2cc1C	-0.82
O=C(C1CCCN(S(=O)(=O)c2cccc3nsnc23)C1)N1CCN(c2ccccc2F)CC1 (stereo unspecified)	-1.5
Cc1ccc(OCC(=O)Nc2ccc(S(=O)(=O)Nc3cc(C)on3)cc2)c(Br)c1	-1.4
Cc1ccc2nc(SCC(=O)N3CCC4(CC3)CNC(=O)O4)[nH]c2c1	-0.85
